Screens deposited in PubChem by National Center for Advancing Translational Sciences (NCATS).
D2 ag: activates the human D2 dopamine receptor | P14416 | DiscoveRx PathHunter D2 beta-arrestin, luminescence, 90 min; 100% = 57 uM dopamine signal | activation, % (concentration not given with the values) | 360,000 compounds, 0.084% hits | AID 624465; in the data active = activation above about 40%; inconclusive = about 15% to 40%; inactive = below about 15%; note: the text of the record calls up to 30% inactive
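DiscoveRx PathHunter D2 beta-arrestin cells (2,100/well) attached overnight, then compound-stimulated 90 min at 37 C in HBSS/10 mM HEPES/0.1% Tween-20 buffer; beta-galactosidase complementation read by luminescence after 1 h at ambient temperature. Dopamine 57 uM final (EC100) as control.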
D2 PAM: potentiates the human D2 dopamine receptor allosterically; P14416; DiscoveRx D2 beta-arrestin cells, luminescence, 90 min; 100% = 57 uM dopamine signal; potentiation, % (no concentration beside the values); 360,000 compounds, 0.23% hits; AID 624464; active = potentiation of 50% or more; inconclusive = 30% to 50%; inactive = 30% or less;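 note: compound concentration not given in the record; tested on top of an EC20 dose of dopamine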
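D2 cells co-treated with compound plus 50 nM dopamine (EC20) for 90 min at 37 deg C to detect potentiation. Beta-arrestin recruitment was read as enzyme-fragment luminescence after 1 h at ambient temperature. Full response was set by 57 uM dopamine.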
Sfp PPTase inh: inhibitors of Bacillus subtilis Sfp phosphopantetheinyl transferase. AID 1490. Q9F4F7. Biochemical Sfp PPTase activity, qHTS. Potency, µM, for the others: max response, negative = inhibition, hits mostly inhibitors. 310,000 compounds, 3.5% hits; active = well fitted inhibition curve with a large enough effect; inconclusive = small, poorly fitted or top-dose-only effect, or another doubt; inactive = no such curve, though single readings can be large or run the other way;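 note: the enzyme is Sfp with the accession as filed and its product quenches rhodamine fluorescence; potency is the fitted concentration of half-maximal effect; 0% = enzyme reaction without inhibitor and -100% = no enzyme wells; top concentration of the series not given in the record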
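Fluorescence-quenching assay with 15 nM Sfp, 5 uM rhodamine-CoA and 12.5 uM BHQ-2-labelled ybbR peptide in pH 7.6 Hepes/MgCl2 buffer. Enzyme was pre-incubated with compound for 15 min at room temperature. Rate was taken from the 30-min fluorescence change (525/598 nm).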
CtBP-E1A inh: inhibitors of CtBP/E1A interaction; AlphaScreen GST-E1A/His-CtBP binding, 1536-well; stronger effect = lower value; control for the full effect not named in the record; activity change, % (no concentration beside the values); 340,000 compounds, 0.49% hits; AID 651724; in the data active means activity change below about -65%; inconclusive means about -30% to -65%; inactive means above about -30%; note: % is set by controls: 0 for no effect and ±100 for the full control effect
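GST-E1A and His-tagged CtBP (125 nM each as 5X stock) were preincubated with pin-transferred compound for 2 h at 37 °C in the dark, then glutathione donor and nickel acceptor beads were added for 1 h before AlphaScreen reading.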
TRPV1 potentiator: potentiators of human vanilloid receptor 1 (TRPV1). 320,000 compounds, 0.02% hits. potentiation, % at 8.33 µM. AID 540277. TRPV1-expressing cells, Fluo-8 calcium influx, capsaicin EC20 potentiation; host cell line not named in the record; control for the full effect not named in the record. Q8NER1; active means potentiation above 80%; inconclusive means 30% to 80%; inactive means below 30%; note: 0% is about no effect
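Cells expressing TRPV1 were dye-loaded with Fluo-8 and read kinetically: 10 s baseline, 3 min after compound (agonist portion), then 2 min after EC20 capsaicin (allosteric enhancer portion). Calcium-bound dye fluorescence at 480/520 nm.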
Six1-Eya2 blk: inhibitors of human Six1/Eya2 interaction; activity change, % (concentration not given with the values); 360,000 compounds, 0.56% hits; AID 651725; AlphaScreen GST-Six1/His-Eya2 binding, biochemical; stronger effect = lower value; control for the full effect not named in the record; Q15475+O00167; in the data active = activity change below about -65%; inconclusive = about -30% to -65%; inactive = above about -30%; note: % is set by controls: 0 for no effect and ±100 for the full control effect
Target sequence (O00167 whole entry, looked up): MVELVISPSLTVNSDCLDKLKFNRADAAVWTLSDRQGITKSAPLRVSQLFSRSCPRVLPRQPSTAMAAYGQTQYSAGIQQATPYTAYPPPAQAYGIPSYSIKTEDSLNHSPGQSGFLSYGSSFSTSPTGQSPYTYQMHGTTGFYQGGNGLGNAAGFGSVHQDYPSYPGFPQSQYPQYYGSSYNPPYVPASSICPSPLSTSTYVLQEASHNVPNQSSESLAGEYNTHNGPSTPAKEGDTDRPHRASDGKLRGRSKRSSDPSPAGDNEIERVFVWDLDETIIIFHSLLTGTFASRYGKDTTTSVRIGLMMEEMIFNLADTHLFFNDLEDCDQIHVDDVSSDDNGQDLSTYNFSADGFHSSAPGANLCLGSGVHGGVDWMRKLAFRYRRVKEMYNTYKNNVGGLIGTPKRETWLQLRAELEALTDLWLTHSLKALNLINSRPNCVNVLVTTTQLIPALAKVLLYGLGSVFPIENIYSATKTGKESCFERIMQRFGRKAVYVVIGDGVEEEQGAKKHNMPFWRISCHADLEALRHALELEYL
Target sequence (Q15475 whole entry, looked up): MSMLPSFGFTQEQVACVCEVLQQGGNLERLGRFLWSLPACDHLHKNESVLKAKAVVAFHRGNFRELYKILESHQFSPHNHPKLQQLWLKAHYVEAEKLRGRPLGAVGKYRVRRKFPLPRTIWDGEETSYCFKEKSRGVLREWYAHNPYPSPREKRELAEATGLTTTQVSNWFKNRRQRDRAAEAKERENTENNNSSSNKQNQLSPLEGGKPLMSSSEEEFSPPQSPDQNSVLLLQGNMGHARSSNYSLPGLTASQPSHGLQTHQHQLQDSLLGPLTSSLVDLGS
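Six1/Eya2 binding was read as AlphaScreen signal after compounds were pinned into GST-Six1 plus His-tagged Eya2 (5X stock 250/500 nM) in pH 8.0 Tris/NaCl/TCEP buffer, beads added, then incubated 1 h, 37 C, dark.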
PINK1 modulator: changes PINK1 expression | PINK1 immunofluorescence, high-content cytometry, 24 h | 410,000 compounds, 0.2% hits | Potency, µM (top dose mostly 76.6 µM), for the others: at the highest dose activation (PINK1 increase), usual class: activators; active = well fitted activation curve with a large enough effect; inconclusive = small, poorly fitted or top-dose-only effect; inactive = flat fitted curve, though single readings scatter; cell line not stated here;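 note: potency is the fitted concentration of half-maximal effect; % of control where 0% means no effect; nearly all actives have a fitted effect of over 65% in size; a mitochondrial uncoupler was the plate control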
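PINK1 protein level read as immunofluorescence by microplate cytometer in a fixed, stained stable cell line after 24 h exposure to five compound concentrations, with CCCP as control.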
An asterisk follows results filed as active; u = inconclusive; x = not tested or not shown; & = joins results of further samples; [ ] = dose if it differs, or a comment. Not a hit list; any-hit rate near 3.7%.

SMILES	D2 ag	CtBP-E1A inh	Six1-Eya2 blk	PINK1 modulator	Sfp PPTase inh	TRPV1 potentiator	D2 PAM
CC1CC(C)CN(c2cc(=O)n(Cc3ccc(F)cc3)c(=O)[nH]2)C1 (stereo not given)	-4.8	0	0	7.6%	-6%	-17	1
COc1cc(CO)ccc1OCC(=O)Nc1ccc(Br)cc1	-1.1	x	15	-0.7%	-4%	-14	-13
CCCOP(=O)(c1ccc(N(C)C)cc1)C(O)c1c(Cl)cccc1Cl (stereo not given)	-3.5	3	-15	-1.7%	7%	2	-7
O=C(N/N=C/c1ccc(OC(=O)c2ccccc2)cc1)c1cccc(O)c1	6.0	x	-12	1.7%	-7%	6	0
Cc1ccc(NC(=O)COc2ccc3c(c2)CCC3)nc1	-5.1	22	3	5.7%	x	-1	-11
O=C1CCC(C(=O)OCC(=O)N2N=C3/C(=C\c4ccccc4)CCCC3C2c2ccccc2)N1 (stereo not given)	1.8	-1	-10	3.7%	x	x	-34
COc1ccccc1N1CCN(C(CNS(=O)(=O)c2ccccc2)c2ccccc2)CC1 (stereo not given)	-0.6	-21	-12	0.4%	18%	4	-33
CNC(=O)CN1C(=O)NC2(CCc3ccccc32)C1=O (stereo not given)	-2.2	16	0	-3.4%	-2%	-1	2
COc1ccc(C2Nc3ccccc3C(=O)N2c2ccc(C)cc2)cc1Cn1cc([N+](=O)[O-])cn1 (stereo not given)	-3.4	-6	-9	u	3%	2	-10
Cc1cc(C)n(CCC(=O)N/N=C/c2c(O)ccc3ccccc23)n1	-4.3	x	-89*	0.8%	u	7	-23
CCOC(=O)c1c(NC(=S)Nc2ccccc2)sc2c1CCCCC2	-5.0	9	4	2.0%[38.3 µM]	u	-2	-4
O=C(C1CCC1)N1CCc2cc(S(=O)(=O)Nc3ccc4c(c3)OCCO4)ccc21	3.0	-1	-4	1.5%	5%	-6	19
Cc1ccc2[nH]c(O)c(N=NC(=O)c3ccc(NS(=O)(=O)c4cccs4)cc3)c2c1	-3.3	0	1	0.6%	2%	-3	1
COc1ccc(C(c2nnnn2C2CCCC2)N2CCN(C(=O)c3ccco3)CC2)cc1OC (stereo not given)	-6.9	3	-8	1.2%	2%	-1	-4
Cc1ccc2nc(SCC(=O)Nc3ccc(C(N)=O)cc3)[nH]c2c1	-7.1	-2	-7	0.9%	8%	1	-2
COc1ccc(-c2noc(C3CCCN(C(=O)c4ccc(C)cc4)C3)n2)cc1 (stereo not given)	1.4	5	0	3.4%	-18%	0	-3
O=C(CSCc1ccccc1)N1CCN(c2ccc(F)cc2)CC1	-1.2	10	-3	x	-11%	14	-1
CN(Cc1ccccc1)C(=O)CN1C(=O)NC(C)(c2ccc(C(C)(C)C)cc2)C1=O (stereo not given)	-0.2	6	-2	-1.5%	1%	9	-5
COCCCNC(=O)C[C@H]1C[C@H](C(=O)N(C(C)C)C(C)C)[C@@]2(C)c3[nH]c4ccc(Cl)cc4c3CCN2C1=O	-3.0	2	-2	7.3%	x	x	-5
CN(C)CCCOC(=O)c1ccccc1Cl	1.7	-1	-2	-1.0%	4%	3	-12
CC1CC=CCC1(CO)CO (stereo not given)	0.3	-17	9	1.2%	x	x	1
O=C(CSc1nc2nc[nH]c2c(=O)[nH]1)NC1CCCCC1	-2.5	-14	-18	0.9%	0%	20	-10
Cc1cc(NC(=O)c2ccc(NC(=O)C(C)Oc3ccccc3)cc2)no1 (stereo not given)	0.3	46	9	9.0%[38.3 µM]	15%	-21	-10
CN(CC(=O)Nc1ccccc1Cl)C1CCS(=O)(=O)C1 (stereo not given)	-1.9	x	-3	-0.5%	x	12	-4
Cc1nc(C(=O)Nc2cccc(Cl)c2)nn1-c1cc(OC(C)C)c(Cl)cc1Cl	-0.5	-4	-2	16%[38.3 µM]	5%	8	-2
CN(C)[C@@H](CO)c1nnc([C@H](CC(=O)O)NC(=O)C2CCNCC2)o1	1.0	-1	-4	0.9%	-21%	-11	-5
Cc1cccc(CC2CC(=O)N(CCc3ccc4c(c3)OCO4)C2=O)c1 (stereo not given)	-1.3	-12	0	2.4%	4%	5	-3
CCOC(=O)C1(Cc2cccc(F)c2)CCN(C(=O)C2CCOCC2)CC1	0.1	4	-6	-0.1%	16%	-7	-1
O=C(Cn1cc2c(n1)CCCCC2)Nc1c(F)c(F)cc(F)c1F	-3.2	7	6	6.3%	22%	-1	-2
O=C(c1ccccn1)N1CCN(C(=O)c2ccccn2)CC1	-0.1	-9	4	-0.4%	-8%	3	-16

An excerpt from above in order of molar mass, lowest first:
SMILES	D2 ag	CtBP-E1A inh	Six1-Eya2 blk	PINK1 modulator	Sfp PPTase inh	TRPV1 potentiator	D2 PAM
CN(C)CCCOC(=O)c1ccccc1Cl	1.7	-1	-2	-1.0%	4%	3	-12
O=C(CSc1nc2nc[nH]c2c(=O)[nH]1)NC1CCCCC1	-2.5	-14	-18	0.9%	0%	20	-10
CN(CC(=O)Nc1ccccc1Cl)C1CCS(=O)(=O)C1 (stereo not given)	-1.9	x	-3	-0.5%	x	12	-4
Cc1cccc(CC2CC(=O)N(CCc3ccc4c(c3)OCO4)C2=O)c1 (stereo not given)	-1.3	-12	0	2.4%	4%	5	-3
Cc1cc(NC(=O)c2ccc(NC(=O)C(C)Oc3ccccc3)cc2)no1 (stereo not given)	0.3	46	9	9.0%[38.3 µM]	15%	-21	-10
COCCCNC(=O)C[C@H]1C[C@H](C(=O)N(C(C)C)C(C)C)[C@@]2(C)c3[nH]c4ccc(Cl)cc4c3CCN2C1=O	-3.0	2	-2	7.3%	x	x	-5

Carrying on:
SMILES	D2 ag	CtBP-E1A inh	Six1-Eya2 blk	PINK1 modulator	Sfp PPTase inh	TRPV1 potentiator	D2 PAM
COc1ccccc1CNC(=O)Cn1ccsc1=N	-3.8	5	9	-0.7%	-11%	5	-22
COc1cccc(/C=C2\Oc3ccc(O)cc3C2=O)c1O	1.6	3	-3	-0.7%	-3%	24	2
OCC[C@H]1C[C@H](O)[C@@H](O)[C@]2(CCCc3ccccc3O2)O1	-4.4	4	3	-0.7%	x	-8	-3
Nc1c(N(CCO)C(=O)COc2ccc(Cl)cc2)c(=O)[nH]c(=O)n1Cc1ccccc1	-0.9	8	0	4.0%	-3%	0	-1
CCOCCCNC(=O)c1ccc(OC)c(OC2CCN(C(C)C)CC2)c1	-3.0	-4	7	-0.8%	1%	25	-6
Cc1cccc(N2C(=O)C(O)=C(C(=O)c3cccs3)C2c2ccc(Cl)cc2)n1 (stereo not given)	-2.1	5	-3	-2.0%	6%	-8	-14
Cc1cc(Br)ccc1NC(=O)CN1C(=O)C2CC=CCC2C1=O (stereo not given)	-2.0	x	4	-1.4%	x	29	-4
CC(=O)Nc1ccc(S(=O)(=O)NNC(=O)c2ccc3c(c2)OCO3)cc1	-1.7	4	9	-0.2%	10%	2	-12
COc1ccc(OC)c(CN2CCN(C(=O)CN3C(=O)NC4(CCCC4)C3=O)CC2)c1	-7.8	-18	-1	-0.3%	x	-8	-19
O=C(Nc1ccccc1)c1ccc(-c2ccc(Br)cc2)o1	-0.2	0	8	-1.2%	13%	-11	-11
C=CCN(C(=O)c1oc2c(Cl)cc(C)cc2c1C)C1CCS(=O)(=O)C1 (stereo not given)	-3.5	0	1	1.0%	0%	-7	-12
CN1CCN(C2CC(=O)N(CCc3ccccc3)C2=O)CC1 (stereo not given)	-3.0	x	3	-0.6%	4%	5	-20
Cc1cc(C)c(NC(=O)CSc2nc3ccncc3[nH]2)c(C)c1	1.5	-2	0	1.5%&0.7%	3%	6	-13
Cc1cccc(C)c1OCc1cc(C(=O)N2CCC(c3ccncc3)CC2)no1	4.5	1	-2	-0.7%	9%	14	-8
O=C(COC(=O)CCc1nc2ccccc2s1)Nc1ccc(Cl)cn1	-0.2	-1	5	0.7%	-6%	2	-2
O=C(COc1ccc(S(=O)(=O)N2CCOCC2)cc1)Nc1ccc(Cl)c(C(F)(F)F)c1	3.7	9	0	x	9%	-2	2
CNC(=O)CSc1nnc(-c2ccco2)n1-c1cccc(OC)c1	-2.6	-6	0	1.3%	2%	5	-3
CC1Cc2ccccc2N1C(=O)c1cnc2sccn2c1=O (stereo not given)	-2.5	-4	2	0.5%	-11%	24	3
CCn1ccc(C(=O)Nc2ccc(Cl)cn2)n1	-2.5	4	-2	-1.3%	8%	x	-6
CC(=O)Cn1c2ccccc2n2nc(CCC(=O)O)c(=O)nc12	-3.8	5	-3	0.6%	29%	-19	-3
CC(=O)Nc1cccc(C(=O)NNC(=O)c2ccc(-n3cnnn3)cc2)c1	0.9	4	-5	0.4%	x	x	-1
Cc1nc2cc(NC(=O)NC3CC3)ccc2n1C	-3.8	-19	5	0.2%	-4%	4	-6
CC(C)C(OC(=O)CN1C(=O)COc2ccccc21)C(=O)NC1CCCC1 (stereo not given)	1.2	-5	6	-3.3%[38.3 µM]	16%	-4	-16
